NPYLR7 agonist: mosquito NPYLR7 agonism. HEK293T NPYLR7/Galpha15, GCaMP6s calcium fluorescence. activation, % at 10 µM. 270,000 compounds, 0.15% hits. AID 1259423; in the data active means activation above about 40%;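 further: 0% = vehicle and 100% = reference agonist at the receptor; some compounds past the cut are filed as inactive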
NPYLR7 agonist max-min: second read-out of NPYLR7 agonist, no call of its own (marks repeat the call); activation, %; measured here: Max-Min RFU normalised activation; some inactives read as strong as hits;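 span of the calcium signal over five minutes; 0% = vehicle and 100% = native peptide agonist; compound fluorescence can raise it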
Numbers without * were called inactive; & = joins results of further samples. Some of the compounds tested (hit frequency here may not be typical).

SMILES	NPYLR7 agonist	NPYLR7 agonist max-min
Cc1cc(=O)[nH]c(-c2ccc(NC(=O)/C=C/c3cscn3)cc2)n1	-3	-3
CNCCNC(=O)C(F)(F)F	-2	-4
Cc1c(C)n2c3c(=O)[nH]c(=O)n(C)c3nc2n1CCN1CCN(c2ccccc2F)CC1	9	13
Cc1cccn2c(=O)c3cc(C(=O)N4CCOCC4)n(C)c3nc12	0	-4
O=C(Nc1ccccn1)c1ccc(S(=O)(=O)N(Cc2ccco2)C2CC2)o1	-10	-14
Cc1ncc(C(=O)N2CCCN(Cc3ccc(F)cc3)C(C(C)C)C2)c(C)n1 (centres undefined)	3	2
CCN(C(=O)Cn1ccn2nc(-c3ccc(Cl)cc3)cc2c1=O)c1cccc(C)c1	7	5
O=C(NCc1ccncc1)c1ccc(CSc2nc(-c3ccccc3)cc(N3CCCC3)n2)cc1	17	20
Cc1ccc(Cl)c(OC2CC3CCC(C2)N3C(=O)c2ccc(CSc3nc(C)cs3)cc2)c1 (centres undefined)	3	1
O=C(CC1CC1)N1CCC(n2c(-c3ccccc3)nc3ccc(F)cc32)CC1	-1	-1
CCCCN(CC(=O)Nc1cc(-c2ccccc2)nn1-c1ccccc1Cl)C(=O)/C=C/c1ccc([N+](=O)[O-])cc1	16	13
COC(=O)C1=C(C)N(C)C(C)=C(C(=O)OC)C1c1ccccc1C(F)(F)F	-2	-2
CCOC(=O)C1CCN(C(=O)c2cccc(CSc3nc(C)cc(N4CCN(CC)CC4)n3)c2)CC1	0	0
CN1CCCC1CCn1cnc(-c2ccccc2)c1-c1ccccc1C(=O)O (centres undefined)	9	9
C=CCN(Cc1cccc(OC)c1)C(=O)c1cc(-c2cnn(C)c2C)n[nH]1	-9	-14
N#CC1(NC(=O)CN2CCN(S(=O)(=O)c3cc(Cl)ccc3Cl)CC2)CCCCCC1	0	-1
COc1ccccc1N1CCN(C(=O)c2csc(CSc3nnc(-c4cccnc4)n3-c3cccc(Cl)c3)n2)CC1	-4	13
COCCN1CC(C(=O)NCC2(c3ccc(OC)cc3)CCCC2)CCC1=O (centres undefined)	3	-1
Cc1cccc(C)c1NC(=O)c1ccc(CN(c2ccccc2)S(C)(=O)=O)cc1	-11	-16
CCOC(=O)c1c(NC(=O)CC(=O)OC)sc2c1CCN(c1ccc(Cl)nc1)C2	8	4
Cc1cc(C)c(OCC(=O)Nc2ncccc2O)c(C)c1	-6	-6
COCC(C)(NC(=O)c1sccc1C#N)c1ccccc1 (centres undefined)	0	-2
Cn1nc(C(=O)NNC(=O)CCc2ccc3c(c2)OCO3)c2ccccc2c1=O	1	-1
CCn1c(SCC(=O)NC2(C#N)CCCC2)nc2ccccc21	2	0
O=c1[nH]c2cc3nc(C(F)(F)F)[nH]c3cc2[nH]1	8	7
CCOC(=O)c1nn(CCc2scnc2C)c2c1CN(C(=O)CCc1cccs1)CC2	9	-4
CSC(=Nc1ccc(Br)cc1)C(C#N)C#N	4	-1
CC1Sc2ccccc2N(Cc2ccccc2Cl)C1=O (centres undefined)	9	7
CN1C(=O)CC(C(=O)O)SC1=Nc1cccc(C(F)(F)F)c1 (centres undefined)	9	-1
Cc1ccc(C(=O)N2C(C(=O)NCc3ccco3)COC23CCN(C(=O)c2ccccc2Cl)CC3)cc1 (centres undefined)	1	12
O=C(c1ccco1)N(Cc1ccccc1)Cc1c(-c2ccccc2)noc1N1CCOCC1	3	8
COc1ccc2nc(-c3ccc(OC)c(NS(=O)(=O)c4ccc(C)s4)c3)cn2n1	-8	-12
Cc1cccc(Cn2cccc2CN(Cc2ccc(C(C)(C)C)cc2)C2CCCCC2)c1	2	7
O=C(c1ccco1)N1CCN(Cc2nc3ccccc3[nH]2)CC1	-7	-7
O=C(O)C1C2C=CC(C2)C1C(=O)Nc1nc(-c2ccc(Cl)s2)cs1 (centres undefined)	2	-1
CSc1nc(N)c(C#N)c(Cc2ccccc2)c1C#N	0	-1
O=C(Cc1ccccc1)Nc1nnc(SCCCOc2ccccc2)s1	-3	5
Clc1ccc2c(NCCN3CCCC3)nc(-c3cccs3)nc2c1	4	13
Cc1ccc2nc(-c3ccc(C(F)(F)F)cc3)c(NC(C)(C)C)n2c1	-5	-5
CC1C(=O)Nc2ccc(-c3csc(NC(=O)C4CC=CCC4)n3)cc21 (centres undefined)	6	5
CC(C)N1CCN(C(=O)c2ccc(-n3cnnn3)cc2)CC1C (centres undefined)	1	0
Cc1ccc(NC(=O)CN(C)C(=O)c2cc3c(s2)CCCC3)cc1	-1	-2
O=C(OCc1cc(-c2ccco2)on1)c1cc2ccccc2oc1=O	-2	-4
CC(C)c1ccc(-c2cc(C(=O)N3CCCC3)c3ccccc3n2)cc1	2	-4
Cc1cc(O)c(C(c2ccc(F)cc2)c2c(O)cc(C)n(CCO)c2=O)c(=O)n1CCO	4	5

Fetched by structure from the entries so far (three):
SMILES	NPYLR7 agonist	NPYLR7 agonist max-min
O=C(Cc1ccccc1)Nc1nnc(SCCCOc2ccccc2)s1	-3	5
CCOC(=O)c1nn(CCc2scnc2C)c2c1CN(C(=O)CCc1cccs1)CC2	9	-4
Cc1ccc2nc(-c3ccc(C(F)(F)F)cc3)c(NC(C)(C)C)n2c1	-5	-5

Additional entries follow:
SMILES	NPYLR7 agonist	NPYLR7 agonist max-min
CC1=C(C(=O)OC2CCCC(C)C2)C(c2ccccc2[N+](=O)[O-])NC(=O)N1C (centres undefined)	16	19
COc1ccc(-c2n[nH]c(C(=O)O)c2C)c(OC)c1	-4	-6
O=C(CCCc1ccccc1)Nc1ccnn1C1CCN(C(=O)CCc2cnccn2)CC1	8	1
Cc1cc(C(=O)N(C)C(C)c2ccncn2)c2cccc(C)c2n1 (centres undefined)	1	-5
Cc1ccc(-c2nccn2-c2ccc(-n3cncn3)cc2)cc1	0	-5
Cc1cc(C)cc(COc2coc(CN3CCN(S(=O)(=O)c4ccc(Cl)cc4)CC3)cc2=O)c1	24	9
CCCCN1C(=O)C(=O)N(CC(=O)NC2CCS(=O)(=O)C2)C1=O (centres undefined)	2	9
CC1CN(c2nc3c(c(=O)[nH]c(=O)n3C)n2CCCSc2nc3ccccc3s2)CC(C)O1 (centres undefined)	4	4
COc1ccccc1-n1ncc2c(C)nnc(SCC(=O)N3CCOCC3)c21	-7	-11
COc1ccc(CN(Cc2ccc(F)cc2)C(=O)CC(C)C)cc1OS(=O)(=O)c1ccc(NC(C)=O)cc1	25	21
COCCN(C)CCCNC(=O)c1sc(C(C)(C)C)nc1C	0	-1
CCOC(=O)N1CCCN(C(=O)NCCCOc2cccc3ccccc23)CC1	2	1
COCCNC(=O)CSc1nc(-c2ccccc2Cl)nc2c1c(=O)n(C)c(=O)n2C	-5	-7
O=C(O)c1cc(N2CCC(N3CCCC(C(=O)NC4CC4)C3)CC2)nc2ccccc12 (centres undefined)	-1	-4
Cc1ccc(S(=O)(=O)NCCNC(=O)c2cc(F)cc(F)c2)cc1	-3	-6
O=C(OC1CCSC1)c1ccncc1Cl (centres undefined)	-2	-7
COCC1(C(=O)N2CCCCC2CCn2ccnc2C)CCC1 (centres undefined)	4	-1
Cc1nc(N2CCC(C(=O)N(C)Cc3ccc(C(F)(F)F)cc3)CC2)nc2ccccc12	-3	-4
Cc1ccc(-n2c(O)c(C=Nc3cc(O)ccc3C)c3ccccc3c2=O)cc1C	-4	-5
Cc1noc(CN2CCOc3c(O)cc(-c4nc5ccccc5s4)cc3C2)n1	10	9
CCc1nc2n(n1)C(=O)C(C(c1cccc(F)c1)N1CCCC1)S2 (centres undefined)	0	1
c1ccc(CNCc2cc3ccccc3nc2N2CCCCC2)cc1	12	8
O=C(CSc1nnnn1Cc1cccs1)c1ccc[nH]1	-1	5
O=C(NC1CCCCC1)N1CCCC1c1nnc2ccccn12 (centres undefined)	5	5
Cc1cc(C(=O)Nc2ccccc2Sc2c(C)n[nH]c2C)cc(=O)[nH]1	-7	-9
COc1ccc(C(=O)NC(C(=O)NC2CC2)C2CCN(C(=O)C3CCCC3)CC2)cc1 (centres undefined)	6	2
Oc1ccc(N=Nc2ccccc2)c2ccccc12	2	7
O=C1CCCc2ccc(NC(=O)N3CCCCC3c3ncc[nH]3)cc21 (centres undefined)	17	1
Clc1ccccc1OCCCn1c2ccccc2c2nc3ccccc3nc21	11	9
CCOC(=O)c1c(C)c(C(=O)CN(C(=O)COc2ccccc2)C2CC2)c(C)n1C	17	22
O=c1c(-c2ccccc2)cnc2c(-c3ccccc3)c[nH]n12	-3	-5
O=C(O)c1ccccc1NC(=O)c1sc2ccccc2c1Cl	-7	-10
O=S(=O)(NCc1ccccc1F)C1Cc2ccccc2C1	4&2	2&-2
O=S(=O)(c1cc(F)ccc1F)N1CCN(c2ncnc3ccccc23)CC1	9	8
CCOc1ccc(OCCCCOc2ccccc2[N+](=O)[O-])cc1	-5	10
COc1cccc(CN2CCN(Cc3ccccc3OC(F)F)CC2CCO)c1 (centres undefined)	1	-1
COc1ccc(NC(=O)Nc2nc(COCCO)cs2)cc1OC1CCCC1	12	11
CCC(C)NC(=O)c1cc2c(s1)CSC2 (centres undefined)	7	7
COc1cccc(NC(=O)N2CCN(c3nc(-c4ccc(C)cc4)nc4ccccc34)CC2)c1	19	11
Nc1cc(-c2ccc(Cl)cc2)nn1-c1ccc(C(=O)N[C@@H]2C[C@H]3CC[C@@H]2C3)cc1	-4	-6
Cc1ccc(-c2nc3cc(C)ccn3c2NC(=O)CCC2CCCC2)cc1	-1	7
O=C1c2ccccc2C(=O)c2c1cccc2-c1ccc(/C=C2\SC(=S)N(c3ccccc3)C2=O)o1	-5	-8
CC(C)OCCCNC(=O)c1cn(C)cc2c(=O)n(-c3ccccc3)nc1-2	1	1
Cc1c(C(C)NC(=O)c2ccc(Oc3ccccc3)o2)cnn1-c1ccccn1 (centres undefined)	1	-5
COc1ccc(S(=O)(=O)Oc2ccccc2CN(CC2CCCO2)C(=O)c2cccs2)cc1 (centres undefined)	14	22

An excerpt of these results, in markdown:
| Compound | NPYLR7 agonist | NPYLR7 agonist max-min |
| --- | --- | --- |
| CNCCNC(=O)C(F)(F)F | -2 | -4 |
| Cc1c(C)n2c3c(=O)[nH]c(=O)n(C)c3nc2n1CCN1CCN(c2ccccc2F)CC1 | 9 | 13 |
| Cc1cccn2c(=O)c3cc(C(=O)N4CCOCC4)n(C)c3nc12 | 0 | -4 |

Continuation.
SMILES	NPYLR7 agonist	NPYLR7 agonist max-min
Cc1ccccc1OC1CCN(C(=O)CCc2nnc(C3CCCCC3)o2)CC1	2	8
CC1C(c2ccccc2)OC(c2ccccc2)N1C (centres undefined)	11	4
Cc1cccc(C)c1-c1nc2ccccc2c(=O)n1Cc1ccc(F)cc1	3	3
COc1ccc(-n2nnc3c(N4CCN(C(=O)c5cccs5)CC4)ncnc32)cc1	-7	-14
Cc1ccsc1CN(CCc1c[nH]c2ccccc12)Cc1nc(C(=O)NCCc2ccccn2)co1	24	20
Cc1cc(C)n(CCC(=O)N(Cc2ccccc2C)CC2CCCO2)c(=O)n1 (centres undefined)	5	3
Cc1cccnc1CN1CCN(Cc2ccc3nonc3c2)CC1	-3	32
COc1ccc2c(c1)C(CNc1cccc(C(=O)O)c1)=CC(C)(C)O2	3	13
Cc1cc(Nc2ccc3c(n2)C(=O)N(CC(=O)NCCc2ccccn2)C3)n(C)n1	-8	-11
OC(Cc1ccccc1)CN(CCN1CCOCC1)Cc1ccsc1 (centres undefined)	19	17
CC(=O)OCCOCn1cnn2c(=O)c(Br)c(C)nc12	6	5
COc1cc(N(C)Cc2nc(-c3ccccn3)no2)ncn1	3	0
CN(C)CCO/N=C(/c1ccc(F)cc1)c1cccnc1	-9	-10
O=C(Cc1ccc(Br)cc1)NCC(=O)Nc1ccccn1	3	11
Cc1noc(-c2ccnc(Oc3ccc(CN4CCCC4)cc3C)c2)n1	-1	-9
COc1ccc(NC(=O)c2cccnc2C2=NC(C)(C(C)C)C(=O)N2)cc1 (centres undefined)	-2	-4
COC(=O)c1ccc(CN2C(=O)C(C)ON=C2c2cccc(Cl)c2)o1 (centres undefined)	3	2
Cc1ccnc(SCc2cc(=O)c(OC(=O)c3cccc(Cl)c3)co2)n1	-12	-7
Cn1cnc(-c2ccc(F)cc2)cc1=O	-3	-5
CCCCN(CC(=O)Nc1cc(-c2ccccc2)nn1-c1ccc(C)cc1)S(=O)(=O)c1cccc(C(F)(F)F)c1	-3	5
Cc1ccc(Nc2cc(C(=O)N3CCSCC3)nc3ccccc23)cc1F	14	1
CCCC12CN(C(=O)/C=C/c3cn(S(=O)(=O)c4ccc(C)cc4)c4ccccc34)CC1C(=O)NC(=O)N2 (centres undefined)	-7	-10
Cc1ccc(NC(=O)c2csc(CSc3nnc(-c4ccco4)n3-c3ccc(Cl)cc3Cl)n2)cc1C	21	29
O=C(Nc1cccc(Cl)c1)N(CCN1CCOCC1)CC(=O)N1CCc2sccc2C1COc1ccc(F)cc1 (centres undefined)	-2	1
Cc1ccc(C)c2c(C)c(C(=O)N3CCN(S(C)(=O)=O)CC3)oc12	-7	-5

Full records as entered above. Order of screens: NPYLR7 agonist	NPYLR7 agonist max-min
`Cn1cnc(-c2ccc(F)cc2)cc1=O` is listed as -3	-5
`Cc1ccnc(SCc2cc(=O)c(OC(=O)c3cccc(Cl)c3)co2)n1` is listed as -12	-7
`Cc1ccc(NC(=O)c2csc(CSc3nnc(-c4ccco4)n3-c3ccc(Cl)cc3Cl)n2)cc1C` is listed as 21	29
`Cc1ccc(Nc2cc(C(=O)N3CCSCC3)nc3ccccc23)cc1F` is listed as 14	1
`COc1ccc(NC(=O)c2cccnc2C2=NC(C)(C(C)C)C(=O)N2)cc1` (centres undefined) is listed as -2	-4

Bioassay records deposited in PubChem by Fisher Drug Discovery Resource Center.
